High-throughput results as filed in PubChem BioAssay.
VDR inhibitor: blocks the human vitamin D receptor. 0.93% of 400,000 active. AID 504847. P11473. Potency, µM, without a hit: max response, negative = inhibition, actives largely listed as inhibitors. VDR-SRC2-3 peptide fluorescence polarization, 2 h; active means well fitted inhibition curve with a large enough effect; inconclusive means small, poorly fitted or top-dose-only effect, or another doubt; inactive means no such curve, though single readings can be large or run the other way; further: series mostly up to about 120 µM
Target sequence (P11473 whole entry, looked up): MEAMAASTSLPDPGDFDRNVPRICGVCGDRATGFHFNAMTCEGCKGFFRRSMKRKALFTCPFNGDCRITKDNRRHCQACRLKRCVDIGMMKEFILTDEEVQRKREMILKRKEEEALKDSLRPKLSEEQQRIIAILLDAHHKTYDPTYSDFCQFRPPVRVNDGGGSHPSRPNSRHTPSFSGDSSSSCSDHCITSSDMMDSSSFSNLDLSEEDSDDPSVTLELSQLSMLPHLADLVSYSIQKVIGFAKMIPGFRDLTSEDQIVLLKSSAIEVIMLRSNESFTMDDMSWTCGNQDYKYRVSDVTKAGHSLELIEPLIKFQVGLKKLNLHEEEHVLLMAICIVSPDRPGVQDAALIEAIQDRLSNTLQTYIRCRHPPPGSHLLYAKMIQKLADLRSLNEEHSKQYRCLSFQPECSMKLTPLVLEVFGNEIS
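Signal is fluorescence polarization, reporting how far test compounds block the interaction of VDR with the SRC2-3 coregulator peptide after a 2 h room-temperature incubation.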
* hit, by the source's call; ? = inconclusive; & = joins results of further samples; [ ] = another dose, or the depositor's remark. On the % scale 0 is the no-effect control and ±100 the full control effect; potency means the concentration at half of the fitted maximal effect.

SMILES	VDR inhibitor
Cc1ccc(N2C(=O)CC(Nc3cccc4ccccc34)C2=O)cc1 (stereo not given)	12.1%
O=[N+]([O-])c1ccccc1/C=C/c1ccc2ccccc2n1	0.4%
Cc1cccc(NC(=O)c2ccc(Cl)c(S(=O)(=O)N3CCc4ccccc43)c2)n1	-18.9%
COc1cccc(C2CC(=O)Nc3cc4c(cc32)OCCO4)c1OC (stereo not given)	-17.3%
CCOC(=O)Nc1ccc2c(c1)Sc1ccccc1N2C(=O)CCN1CCOCC1	-5.0%
Cc1ccc(S(=O)(=O)N2CCCCC2)cc1NC(=O)CSc1ncccn1	-13.5%
O=C(NCc1cccc(Cl)c1)C1CCC(=O)N(CCCN2CCCC2=O)C1 (stereo not given)	-11.7%
CC(=O)N1c2ccc(S(=O)(=O)N3CCCCCC3)cc2CC1C(=O)NCc1cccc(F)c1 (stereo not given)	-0.6%
O=C(CSc1ccc2nnc(-c3ccccn3)n2n1)NCc1ccc2c(c1)OCO2	2.7%
O=C(/C=C/c1cn(-c2ccccc2)nc1-c1cccc(Cl)c1)N1CCN(c2ccccn2)CC1	-22.3%
O=C1CS(=O)(=O)c2ccccc2N1	-15.0%
CCNc1ncc2nc(C)c(=O)n(-c3ccc(OC)cc3)c2n1	0.1%
Cc1ccc2nc(Nc3ccc(Br)cc3)nc(-c3ccccc3)c2c1	-14.5%
CC(C)CN(CC(C)C)c1nnc(NC(=O)Cn2c(=O)oc3ccccc32)s1	3.2%
CCc1ccc(NC(=O)c2cc(S(=O)(=O)N3CCCC(C)C3)cn2C)cc1 (stereo not given)	9.5%
CCOC(=O)n1c(=O)n(Cc2ccc(Cl)cc2Cl)c2ccccc21	0.5%
Cc1c(N=C2NN=C(c3ccc(Cl)cc3)CS2)c(=O)n(-c2ccccc2)n1C	-6.8%
Cc1cc(C)c2ccc(=O)n(CC(=O)N/N=C/c3ccccc3Cl)c2n1	9.3%
CCOc1ccc2nc3cc(N)ccc3c(N)c2c1	12.6µM*
CCOC(=O)c1c(NC(=O)c2cc(=O)c3ccc(C)cc3o2)sc(C)c1C	-6.3%
O=C(COc1ccccc1)Nc1ccc(Cl)cn1	-2.7%
CN(C)C(=O)C1Cc2ccccc2CN1S(=O)(=O)c1cccs1 (stereo not given)	10.3%
CC(C)OC(=O)C(C(=O)C(F)(F)F)c1cc(NS(=O)(=O)c2ccc3c4c(cccc24)C(=O)N3)ccc1O (stereo not given)	-10.9%
O=c1[nH]c2cc(Cl)c(Cl)cc2o1	-11.8%
O=C(Cn1c(=O)n(-c2ccc(Cl)cc2)c(=O)c2oc3ccccc3c21)Nc1ccccc1	8.7%
O=S(=O)(Cc1cc(Cl)nc(-c2ccccc2)n1)c1ccccc1	23.9%
O=C(NCCCNC(=O)c1ccco1)c1ccc(Cl)c(Cl)c1	1.3%
Cc1ccc(C)c(-c2ccc(=O)n(Cc3c(F)cccc3Cl)n2)c1	-13.5%&-0.7%
Clc1ccc(C=NN2CCCCCC2)cc1Cl	-8.6%
CCN(C(=O)N1CCOCC1)c1ccccc1	5.1%
Cc1cc(N2CCOCC2)ccc1/C=C1\NC(=O)N(Cc2ccccc2F)C1=O	-2.4%
O=C(NCc1cccnc1)C1COc2ccccc2O1 (stereo not given)	-4.5%
Cc1cccc(-n2c(Cc3ccccc3)nnc2SCC(=O)N2CCOCC2)c1	-6.9%
CC(C)[C@@H]1CC[C@@H](C)C[C@@H]1P(=O)(c1ccccc1)c1ccccc1	-4.1%
O=C(N/N=C/c1cccs1)c1n[nH]c2c1CCCC2	-17.4%
Cc1nn(-c2cccc3cccnc23)c(=O)c2ccccc12	-13.3%
Clc1ccccc1-c1ccc2ncnc(NCc3cccs3)c2c1	-2.8%
N#C/C(=C/c1ccc(N2CCCCCC2)o1)c1ccc(F)cc1	?
COc1cc(/C=N/NC(=O)c2cccc(NC(=O)c3ccccc3)c2)ccc1O	8.4%
CCOC(=O)c1[nH]c(C)c(C(=O)N2CCN(C(=O)c3ccco3)CC2)c1C	-2.6%
O=C(Cc1ccccc1)Nc1ccc(NC(=O)c2ccc(Br)cc2)cc1	5.9%
Cn1c(SCC(=O)NC(=O)Nc2ccccc2)nnc1-c1ccncc1	-3.0%
O=C(CN1c2ccccc2S(=O)(=O)c2ccccc21)Nc1ccccc1F	16.2%
COc1cccc(OCCSc2nc(C)c(Cc3ccccc3)c(=O)[nH]2)c1	-1.2%&12.9%
CCOC(=O)c1cc2c(C(F)(F)F)cc(-c3cccnc3)nc2o1	4.0%
Cc1cc(C(=O)NCc2ccccc2Cl)n(-c2ccccc2)n1	-18.6%
CC(C)CN(C(=O)C1CCCO1)C1CCS(=O)(=O)C1 (stereo not given)	16.0%
Cc1ccc(Nc2nnc(-c3ccncc3)s2)c(Br)c1	-12.4%
O=C(O)C(c1ccccc1)N1C(=O)/C(=C\c2ccc(-c3ccc(Br)cc3)o2)SC1=S (stereo not given)	?
Cc1cc(O)c(-c2ccno2)cc1Cl	-21.4%
COc1ccc(CCNC(=O)C(=O)NCC(c2ccco2)S(=O)(=O)c2ccccc2)cc1 (stereo not given)	45.6%[activator]
COCCN1C=C(C(=O)OC)C(c2ccccc2Cl)C(C(=O)OC)=C1	-10.2%
CCc1cccc(CC)c1N(COC)C(=O)Cn1c(C)nc2ccccc21	-12.9%
COc1ccc2o/c(=N\O)c(C(=O)Nc3ccccc3OC)cc2c1	-11.3%
O=C(Nc1ccc(S(=O)(=O)Nc2nccs2)cc1)C1CC(=O)N(c2ccc(Cl)cc2)C1 (stereo not given)	-19.7%
CCOc1ccc(OCC)c(NC(=O)C(NS(=O)(=O)c2ccc(Br)s2)c2ccccc2)c1 (stereo not given)	7.0%
O=C(Nc1cccc(F)c1)N1CCC2(CCNCC2)CC1	?
COc1ccccc1C(=O)Nc1ccnn1C1CCN(Cc2ccccc2OCCO)CC1	-5.3%
CN(C)/C=C/C1=C([N+](=O)[O-])C(c2cccc([N+](=O)[O-])c2)NC(=O)N1 (stereo not given)	8.7%
COc1ccc(C2=CC(c3cccc(OC)c3)n3nnnc3N2)cc1 (stereo not given)	-17.4%

(listing goes on)
SMILES	VDR inhibitor
CCC[C@H](CN[C@@H](CNC)[C@H](C)CC)NCCc1cc(C(F)(F)F)cc(C(F)(F)F)c1	-25.0%
Cc1ccc(NC(=O)C2CC(=O)N/C(=N/N=C/c3ccco3)S2)cc1 (stereo not given)	1.6%
Cn1c(SCC(=O)C(C)(C)C)nnc1-c1ccccn1	1.9%
COc1ccc(N2CCN(c3nc(-c4ccccc4F)nc4ccccc34)CC2)cc1	21.1%
Cc1ccc(NC(=O)/C(C#N)=C/c2cc(C)n(-c3ccc(Br)cc3)c2C)cc1C	-12.9%
COc1cc(OC)cc(-c2c(-c3ccc(F)cc3)c3cc(-c4cnc(OC)nc4)ccc3n2C)c1	-7.2%
N#CC1(NC(=O)CSc2nnc(-c3ccccc3F)n2N)CCCCC1	-5.2%
Nc1nc(F)cc(NCc2ccccc2)n1	-3.2%
C[C@H](N)CCCC(C)(C)O	-5.0%
Brc1cccc(CNCc2cccs2)c1	-9.8%
CCN1CCN(Cc2c(O)ccc3oc(C)c(C(=O)Nc4ccc(OC)c(Cl)c4)c23)CC1	21.7%
COc1ccc(-n2c(Cc3cccn3C)nnc2SCC(=O)N2CCCc3ccccc32)cc1	5.0%
CCCOC(=O)Oc1ccc2c(=O)c(Oc3cc(C)cc(C)c3)coc2c1	10.0%
Cc1ccc(Cn2c(C(=O)NCc3ccccc3Cl)cc3sccc32)cc1	-12.3%
Cc1cccc(NC(=O)CSc2nnc(Cn3nnc(-c4ccccc4)n3)n2-c2ccccc2)c1	-15.2%

Arranged by molecular weight (ascending): some entries from above.
SMILES	VDR inhibitor
C[C@H](N)CCCC(C)(C)O	-5.0%
O=C(NCc1cccnc1)C1COc2ccccc2O1 (stereo not given)	-4.5%
O=C(N/N=C/c1cccs1)c1n[nH]c2c1CCCC2	-17.4%
Cc1nn(-c2cccc3cccnc23)c(=O)c2ccccc12	-13.3%
Cc1ccc(C)c(-c2ccc(=O)n(Cc3c(F)cccc3Cl)n2)c1	-13.5%&-0.7%
COc1ccc(CCNC(=O)C(=O)NCC(c2ccco2)S(=O)(=O)c2ccccc2)cc1 (stereo not given)	45.6%[activator]
COc1ccc(-n2c(Cc3cccn3C)nnc2SCC(=O)N2CCCc3ccccc32)cc1	5.0%

Remaining list, next part.
SMILES	VDR inhibitor
CC(C)c1nnc(NC(=O)C2CCN(C(=O)c3ccco3)CC2)s1	-20.1%
CCOC(=O)CN(C(=O)CSc1nnc(-c2ccc(OC)c(OC)c2)o1)c1ccccc1	1.5%
CC1CCCCN1C(=O)CN1C(=O)NC2(CCCCC2C)C1=O (stereo not given)	-17.7%
C=CCOC(=O)C1=C[C@H](c2ccc(Br)cc2)C[C@H](OCc2ccc(CO)cc2)O1	-16.5%
CC(/C=N/NC(=O)c1cccc(F)c1)=C\c1ccccc1	-5.1%
O=C(c1cccnc1)N1CCN(C(=O)c2ccccc2F)CC1	-5.3%
CC(=O)Oc1ccc(-n2c(=O)c3ccccc3c3ccccc3c2=O)cc1	18.6%
Cc1c(Cl)cccc1N=c1c([N+](=O)[O-])nn(-c2ccccc2)n1O	3.6%
CCOC(=O)c1cc(=O)n(-c2ccc(Cl)cc2C)[nH]1	-7.9%
Cc1ccc(Sc2ccc(NC(=O)CCl)cc2)cc1C	-28.7%
O=C(N/N=C/c1ccccc1)c1ccc(-c2ccccc2)cc1	2.2%
CC1CCN(C(=O)COC(=O)c2cccc(NS(=O)(=O)c3ccccc3)c2)CC1	3.1%
O=[N+]([O-])c1ccc(/C=N/NC(=S)Nc2ccc(Cl)cc2Cl)s1	1.7%
COc1ccc(S(=O)(=O)N2CCCC(C(=O)Nc3cccc(C(C)=O)c3)C2)cc1 (stereo not given)	5.6%
COCCn1c(SCC(=O)NCC2CCCO2)nc2c(c1=O)SC(C)C2 (stereo not given)	-7.8%
CCN(CC)S(=O)(=O)c1ccc(Cl)c(NC(=O)COc2ccc(OC)cc2)c1	3.6%
NC(=O)C1CCN(C(=O)c2cnn(-c3ccccc3)c2NC(=O)c2ccco2)CC1	-14.2%
Cc1nn(Cc2noc(C(=O)NCCc3ccccn3)n2)c(C)c1Br	4.1%
Cc1ccc(OCCCC(=O)Nc2ccc(N3CCOCC3)cc2)cc1	8.5%
CCc1ccc(NC(=O)c2sc3nc(C)cc(C)c3c2NC(=O)c2ccccc2OC)cc1	-7.3%
Cc1cc(C(=O)Nc2ccccc2C(=O)O)c(C)o1	12.2%
Cc1ccc(S(=O)(=O)NCc2ccco2)c(C)c1C	-10.4%
Cc1cc(C)c(N=Cc2c(O)n(-c3nccs3)c(=O)c3ccccc23)c(C)c1	-2.0%
CN(CC(=O)NCc1ccc(F)cc1)S(=O)(=O)c1cccc2nsnc12	22.4%
O=C(C1CCCCC1)N1CCCC(c2nc(-c3ccc(F)cc3)no2)C1 (stereo not given)	34.5%[activator]
CC(=O)N(C)c1ccc(NC(=O)C(Sc2ccccc2)c2ccccc2)cc1 (stereo not given)	2.8%
COc1ccccc1N(CC(=O)N1CCN(c2ccccc2)CC1)S(=O)(=O)c1ccc(C)cc1	-11.8%
COC(=O)c1cn(Cc2ccccc2C)nn1	-9.5%
Clc1ccc(-c2cn3cc(Cc4ccccc4)sc3n2)cc1	4.7%
CS(=O)(=O)c1ccc(-c2sc3cc4c(cc3c2C(=O)NN2CCOCC2)OCO4)cc1	-5.0%
CCN(CC(=O)Nc1ccc(OC)cc1)C(=O)c1cc(S(=O)(=O)N2CCOCC2)ccc1N1CCCC1	-7.3%
CCSC1=C(C#N)C2(CCCCC2)C(C#N)C(=O)N1 (stereo not given)	-3.6%
CC(C)(C)c1cc(CCC(=O)N2CCCC2)cc(C(C)(C)C)c1O	33.9%[activator]
O=S(=O)(N/N=C1/CC(c2ccccc2)Oc2ccccc21)c1ccc(Br)cc1 (stereo not given)	-3.0%
Nc1nc2ccc(Cl)cc2[nH]1	4.9%
Cc1nc(C(=O)O)nn1-c1ccc([N+](=O)[O-])cc1	8.4%
CCOC(=O)CCSc1cc(C)c2ccccc2n1	-22.4%
N#C/C(=C\c1c(N2CCC(C(N)=O)CC2)nc2ccccn2c1=O)S(=O)(=O)c1ccc(Cl)cc1	10.4%
COc1ccc(CCN2C(=O)CC(NNc3ccc([N+](=O)[O-])cc3)C2=O)cc1OC (stereo not given)	12.2%
OC1CCCN(CC(O)c2ccccc2)C1 (stereo not given)	-0.2%
CC(=O)Nc1ccc(S(=O)(=O)N2CCC3(CC2)OCCO3)cc1	4.7%
CCN(CC(=O)Nc1ccc(NC(C)=O)cc1)C(=O)c1c(-c2c(F)cccc2Cl)noc1C	-7.6%
CCOC(=O)c1sc2nc(C)nc(NC3CCC(O)CC3)c2c1C (stereo not given)	-2.6%
O=C(NCC(=O)N(c1cnc2ccccc2c1)C(C(=O)NC1CCCC1)c1ccncc1)c1ccco1 (stereo not given)	13.4%
COc1ccc(C2C(C(=O)N3CCCC3)c3cc(OC)c(OC)cc3C(=O)N2C)cc1 (stereo not given)	10.6%
Fc1ccc(-c2cn(-c3ccccc3)c3[n+]2CCS3)cc1	12.8%
CC(=O)C1=C(O)C(=O)N(C)C1c1ccccc1F (stereo not given)	5.5%
O=C(NC1CCCC1)c1ccc2c(c1)N(Cc1ccc(C(F)(F)F)cc1)C(=O)c1ccccc1S2	-12.6%
Cc1ccccc1CC1(CO)CCCN(Cc2c(C)nn(C)c2Cl)C1 (stereo not given)	10.8%
Cc1cc(C)n(-c2cc(N3CCN(S(=O)(=O)c4ccc(Br)cc4)CC3)ccc2[N+](=O)[O-])n1	-17.4%

An excerpt of these results, with each value named.
> CN(C)C(=O)C1Cc2ccccc2CN1S(=O)(=O)c1cccs1 (stereo not given)
  VDR inhibitor = 10.3%

> CC(C)OC(=O)C(C(=O)C(F)(F)F)c1cc(NS(=O)(=O)c2ccc3c4c(cccc24)C(=O)N3)ccc1O (stereo not given)
  VDR inhibitor = -10.9%

> O=c1[nH]c2cc(Cl)c(Cl)cc2o1
  VDR inhibitor = -11.8%

> O=C(Cn1c(=O)n(-c2ccc(Cl)cc2)c(=O)c2oc3ccccc3c21)Nc1ccccc1
  VDR inhibitor = 8.7%

Not all compounds are listed. The share of hits here may be higher or lower than overall.
